Vaccinia Venus – qHTS for Stage-Specific Inhibitors of Vaccinia Orthopoxvirus: Venus Reporter Primary qHTS; 330,000 tested, 0.46% active; Vaccinia virus Venus reporter expression, fluorescence; AID 720580, 2013; Potency, µM (top dose mostly 36.5 µM), without a hit: at the highest dose activity change, negative = inhibition, most hits filed as inhibitors; active means well fitted inhibition curve with a large enough effect; inconclusive means small, poorly fitted or top-dose-only effect; inactive means no such curve, though single readings can be large or run the other way; tested in A549 cells; note: nearly all actives have a fitted effect of over 30% in size; inactives centre near -10
VACV mCherry inh – qHTS for Stage-Specific Inhibitors of Vaccinia Orthopoxvirus: mCherry Reporter Primary qHTS. Vaccinia virus mCherry reporter infection, fluorescence; about a quarter of the inactives have no number. Potency, µM (top dose mostly 36.5 µM), inactives show at the top dose activity change, negative = inhibition, hits mostly inhibitors. 310,000 tested, 0.63% active. AID 720579, 2013; active = well fitted inhibition curve with a large enough effect; inconclusive = small, poorly fitted or top-dose-only effect; inactive = no such curve, though single readings can be large or run the other way; tested in A549 cells; note: nearly all actives have a fitted effect of over 35% in size; inactives centre near -10
An asterisk follows results filed as active; i = inactive; ? = inconclusive; · = not tested or not shown; & = joins results of further samples. % is set by controls: 0 for no effect and ±100 for the full control effect; potency is the fitted concentration of half-maximal effect.

mol | Vaccinia Venus | VACV mCherry inh
CCN1CCCC1CNCC(=O)Nc1ccc(OC(F)(F)F)cc1 (configuration not stated) | -7% | 10%
CC(C)c1cc2c(c(O)c1O)[C@]1(C(=O)O)CCCC(C)(C)C1CC2 (some centres not stated) | -4% | -11%
CC1CCN(c2nc3ccc(C(=O)NCCCN4CCCCC4C)cc3s2)CC1 (configuration not stated) | -8% | i
CC(C)(CO)NC(=O)C(c1ccccc1)c1ccccc1 | -2% | i
CCC(C)(C)C1CCC(=NNS(=O)(=O)c2ccc(C)c([N+](=O)[O-])c2)CC1 (configuration not stated) | -5% | -8%
c1ccc(Cn2ncc3c(N4CCCCC4)ncnc32)cc1 | -21% | ·
CCCCC(=O)Nc1nc2c(s1)COc1ccccc1-2 | -19% | -24%
CCCCN(C=O)c1c(CC)nc2c(OCc3ccccc3C)cccn12 | 2% | -10%
COc1ccc(NC(=O)CN2CCN(S(=O)(=O)c3ccc(C(C)C)cc3)CC2)cc1OC | -12% | -19%
CCC(C)NC(=O)Cn1c(=O)n(CCCCCC(=O)Nc2ccccc2)c(=O)c2sccc21 (configuration not stated) | -6%&-16% | 1%&-13%
Clc1ccc(/C=C/c2ccc3ccccc3n2)c(Cl)c1 | -16% | -21%
COc1ccccc1C1C(C(=O)c2sc(C)nc2C)=C(O)C(=O)N1CCN1CCOCC1 (configuration not stated) | -9% | ·
O=C(c1cc(-c2ccc(F)cc2)on1)N1CCCCCC1 | -10% | -15%
C[C@@H]1NC(=O)c2cc([N+](=O)[O-])cc(F)c2NCCC[C@@H](C(N)=O)NC(=O)[C@H](CC(N)=O)NC1=O | -5% | i
Cc1ccc(NC(=S)N(CCCN2CCOCC2)Cc2ccco2)cc1 | -11% | -22%

(more compounds)
mol | Vaccinia Venus | VACV mCherry inh
CCC1=C(c2ccc(C)cc2)S(=O)(=O)N=C1N1CCC(C(=O)N2CCCCC2)CC1 | -6% | 11%
CC1CN(C(=S)NC2CCCC2)CC(C)O1 (configuration not stated) | -8% | i
CSc1cccc(NC(=S)N2CCC(N(C)C3CCCCC3)CC2)c1 | -19% | ?
Cc1ccc(-c2nc(SCC(=O)NCC3CCCO3)c(-c3ccccc3)[nH]2)cc1 (configuration not stated) | -24% | -23%
COc1ccc(CN2CCC3(CCC(CNC(=O)c4ccnn4C)O3)CC2)c(C)c1C (configuration not stated) | -12% | i
COc1cccc(CNC(=O)c2ccc3c(c2)sc2nc(-c4ccccc4)cn23)c1OC | -17% | -16%
Cc1cccc(NC(=S)N(CCCN(C)C)Cc2cc3cc4c(cc3[nH]c2=O)OCO4)c1 | -13% | -7%
O=C(CN1C(=O)NC2(CCCC2)C1=O)NNC(=O)c1ccc(Br)cc1 | -5% | i
CN1C(=O)/C(=C\c2ccc(Br)s2)C(=O)NC1=S | 18% | i
COC(=O)c1ccc(NC(=O)CSc2nnc(COc3c(C)cccc3C)o2)cc1 | -5% | -14%
Cc1nc2ccc(C(=O)N/N=C/c3ccccc3O)cc2[nH]1 | -7% | -28%
O=C(CSc1nc2ccccc2[nH]1)NC1CCS(=O)(=O)C1 (configuration not stated) | 0% | i
COc1ccc(S(=O)(=O)N2CCCCC2)cc1NCC(=O)Nc1ccc(C)cc1 | -10% | -17%
COc1ccc(NCc2nnc(SCC#N)n2-c2ccccc2OC)cc1 | -11% | -13%
CS(=O)(=O)c1ccc2nc(NC(=O)CN3C(=O)C4CC=CCC4C3=O)sc2c1 (configuration not stated) | 3% | i

Single records, from the list above.
COc1ccc(NCc2nnc(SCC#N)n2-c2ccccc2OC)cc1 is listed with Vaccinia Venus = -11%; VACV mCherry inh = -13%
CC1CN(C(=S)NC2CCCC2)CC(C)O1 (configuration not stated) is listed with Vaccinia Venus = -8%; VACV mCherry inh = i
Cc1ccc(-c2nc(SCC(=O)NCC3CCCO3)c(-c3ccccc3)[nH]2)cc1 (configuration not stated) is listed with Vaccinia Venus = -24%; VACV mCherry inh = -23%

Reprinted at random: two entries already listed.
mol | Vaccinia Venus | VACV mCherry inh
COc1cccc(CNC(=O)c2ccc3c(c2)sc2nc(-c4ccccc4)cn23)c1OC | -17% | -16%
COc1ccc(NCc2nnc(SCC#N)n2-c2ccccc2OC)cc1 | -11% | -13%

Other results follow.
mol | Vaccinia Venus | VACV mCherry inh
Cc1ccc(CNC(=O)CCc2c(C)nn(-c3ccc(N4CCCC4)nn3)c2C)cc1 | -4% | -5%
CCN(CC)C(=O)[C@H]1CC(CC(=O)NCc2ccco2)C(=O)N2CCc3c([nH]c4ccccc34)[C@]12C (some centres not stated) | 0% | -4%
C=CCC[C@@H](Cc1ccc(F)cc1)C(=O)OC[C@H](Cc1c[nH]c2ccccc12)NC(=O)[C@H](CC=C)CC(=O)N(CCO)Cc1ccccc1 | ? | ?
O=C(COC(=O)CNC(=O)C1CCCCC1)Nc1ccccc1OC(F)F | -9% | i
CC(=O)c1cccc(-n2nnnc2SCC(=O)Nc2cccc(NC(=O)c3ccco3)c2)c1 | -12% | i
CC(C)(NS(=O)(=O)OCC(Cl)(Cl)Cl)c1ccccc1 | ? | ?
O=C(Nc1ccc2c(c1)OCO2)C(c1ccccc1)N1CCN(C(=O)c2ccco2)CC1 (configuration not stated) | -15% | i
Cc1ccccc1N(C(=O)Cn1nnc(-c2cccs2)n1)C(C(=O)NCCC(C)C)c1ccco1 (configuration not stated) | ? | ·
O=C1C[C@H](c2ccc(O)cc2)Oc2cc(O[C@@H]3O[C@H](CO)[C@@H](O)[C@H](O)[C@H]3O)cc(O[C@@H]3O[C@H](CO)[C@@H](O)[C@H](O)[C@H]3O)c21 | -3% | -18%
FC(F)(F)c1ccccc1Cc1c(-c2ccccc2)nc2c3ccccc3ccn12 | 8% | i
O=c1c(C=NCCN2CCNCC2)c(O)n(C2CCCCC2)c(=O)n1C1CCCCC1 | -30% | -19%
Nc1[nH]c(C(=O)c2ccccc2)c(-c2ccc(Br)cc2)c1C(=O)NC1CCCCC1 | 0% | -12%
O=C(c1ccc(COc2ccccc2Cl)o1)N1CCN(Cc2ccc3c(c2)OCO3)CC1 | -16%&-18% | i
CCN(C(=O)CN1C=NS(=O)(=O)c2ccccc21)c1ccccc1 | -6% | -15%
COc1cccc(CNc2nc3cc(-c4ccccc4C)sc3c(=O)n2C)c1 | -12% | -14%

Remaining list, next part.
mol | Vaccinia Venus | VACV mCherry inh
CC(NC(=O)c1cc(COc2ccccc2)on1)c1nccs1 (configuration not stated) | -14% | i
CCOC(=O)[C@@H]1[C@H]2COc3ccc(Br)cc3[C@H]2N2C(=O)N(c3cccc(F)c3)C(=O)[C@]12C | -17% | i
Cc1ncc(CSCC(=O)Nc2cc(C(F)(F)F)ccc2Cl)c(CO)c1O | -22% | -6%
Cc1c(Cl)c(C(F)(F)F)nn1CC(=O)NCc1ccco1 | -8% | i
Cc1cccc(S(=O)(=O)c2c(N)n(-c3ccccc3)c3nc4ccccc4nc23)c1 | -9% | i
COc1ccc(NC(=O)CSCC(=O)NCc2ccco2)cc1 | -12% | i
COc1ccc(C(C(=O)NC2CCCCC2)N(Cc2ccco2)C(=O)c2snc(C(N)=O)c2N)cc1 (configuration not stated) | -18% | -2%
COc1ccc(NS(=O)(=O)c2ccc(C)c(C(=O)NCc3ccccc3CN3CCCC3)c2)cc1 | -11% | -13%
COc1ccc(O)c(/C=N/NC(=S)Nc2cccc(S(=O)(=O)N(C)C)c2)c1 | ? | 2µM*
S=C(NN=Cc1ccccn1)N(Cc1ccccn1)Cc1ccccn1 | ? | 5.6µM*
CC(NC1=CC(=O)c2cccnc2C1=O)C(O)c1ccccc1 (configuration not stated) | 10µM* | ?
Cn1nc(N)c2ncc(C(Cl)(Cl)Cl)nc21 | ? | ?
CN1C(=O)[C@H]2[C@@H](c3ccccc3)N[C@]3(CCCN(Cc4ccco4)C3=O)[C@H]2C1=O | -15% | i
Cc1ccc(C)c(N2CCN(C(=O)CN3C(=O)COc4ccc(S(=O)(=O)N5CCCC5)cc43)CC2)c1 | 4% | -1%
O=C(Nc1ccc(C(=O)N2CCOCC2)cc1)C1CCCC1 | -4% | i

Remaining list, next part
mol | Vaccinia Venus | VACV mCherry inh
CCOC(=O)Cc1csc(NC(=O)CN2CCCCC2)n1 | -11% | -13%
Cc1ccc(-c2nn(C)c(=O)c3ccccc23)cc1S(=O)(=O)N1CCCC1 | -28% | i
COc1ccc(-n2c(SCCC(C)C)nc3sc4c(c3c2=O)CC(C(C)C)OC4)cc1 (configuration not stated) | 15% | 4%
COc1ccc(C(O)c2ncc(-c3ccc4ccccc4c3)[nH]2)cc1F (configuration not stated) | -21% | -2%
CS/C(N)=N/N=C/c1ccc2c(c1)OCO2 | -17% | -20%
C#CCOCCOCCOCCNc1nc(N2CCN(C(=O)[C@H](CCC(=O)O)n3cc(C(N)[C@H](C)CC)nn3)CC2)nc(N2CCN(C(=O)[C@H](CCC(=O)O)n3cc(C(N)[C@H](C)CC)nn3)CC2)n1 (some centres not stated) | -17% | -16%
CCC(Oc1cc(Cl)ccc1Cl)C(=O)NNC(=O)CCC(=O)O (configuration not stated) | -21% | i
COc1cc(OC)c2ccc(=O)oc2c1 | -2%&-9% | 16%&-6%
Cc1cc(NC(=O)CSc2nnc(NC(=O)C3CC(=O)N(c4ccccc4)C3)s2)no1 (configuration not stated) | -12% | -19%
CC1(c2ccc(Cl)cc2Cl)OCC(Cn2cncn2)O1 (configuration not stated) | -2% | -12%
NC1=NC[C@H](c2ccccc2)N1CCc1cc(C(F)(F)F)cc(C(F)(F)F)c1 | 10µM* | 10µM*
Cc1cc(C)n2c(SCCN3C(=O)c4ccccc4C3=O)nnc2n1 | -1% | -5%
O=C(CCn1cnnn1)Nc1ccc(F)cc1 | 1% | -2%
COc1ncccc1-c1cc2nc(NCCCN(C)C)n(C)c(=O)c2s1 | -14% | -21%
N#CC(C#N)=Cc1cc(O)c(O)c([N+](=O)[O-])c1 | -12% | -3%

Arranged by count of non-hydrogen atoms (smallest number first): 5 of the compounds above.
mol | Vaccinia Venus | VACV mCherry inh
O=C(CCn1cnnn1)Nc1ccc(F)cc1 | 1% | -2%
CCC(Oc1cc(Cl)ccc1Cl)C(=O)NNC(=O)CCC(=O)O (configuration not stated) | -21% | i
COc1ccc(C(O)c2ncc(-c3ccc4ccccc4c3)[nH]2)cc1F (configuration not stated) | -21% | -2%
NC1=NC[C@H](c2ccccc2)N1CCc1cc(C(F)(F)F)cc(C(F)(F)F)c1 | 10µM* | 10µM*
COc1ccc(-n2c(SCCC(C)C)nc3sc4c(c3c2=O)CC(C(C)C)OC4)cc1 (configuration not stated) | 15% | 4%

(cont.)
mol | Vaccinia Venus | VACV mCherry inh
COCCn1c(SCC(N)=O)nnc1-c1c[nH]c2ccccc12 | -1% | 25%
C=CCN(C(=O)c1ccc2snnc2c1)c1ccccc1 | -1% | i
COc1ccccc1-c1coc2cc(O)cc(O)c2c1=O | -13% | ·
NS(=O)(=O)c1ccc(CCNC(=O)Cc2ccccc2[N+](=O)[O-])cc1 | 0% | -14%
CCc1ccc(C(=O)NCc2ccc(Cl)cc2Cl)cc1 | -10% | -7%
Cc1ccc(C)c(NC(=S)NNc2ccc(F)cc2F)c1 | -14% | ?
Cc1ccc(Cl)c2c1NC(=O)C2(O)CC(=O)c1ccccc1O (configuration not stated) | 7% | -10%
Cc1cc(C)n(-c2nc(SCCN3CCOCC3)c3c4c(sc3n2)CCCC4)n1 | -9% | i
Cn1nc([N+](=O)[O-])nc1Oc1ccccc1F | -7% | -1%
Nc1ccn(CCCNCC(c2ccccc2)c2ccccc2)c(=O)n1 | -16% | -1%
CCOc1ccc(OCc2ccc(C(=O)NC(C)(C)C)o2)cc1 | -22% | -26%
CCOC(=O)c1ccc(NC(=O)CN2C(=O)COc3ccc(Cl)cc32)cc1 | 1% | 6%
C=CCN1C(=O)C(Cc2ccc(Br)cc2)S/C1=N\N=C\c1ccco1 (configuration not stated) | -11% | -9%
O=C(Nc1ccc(NC(=O)c2cccs2)cc1)c1cccnc1 | -7% | -10%
CCOCCn1c(SCC)nc2c1c(=O)[nH]c(=O)n2C | -3% | -12%

Next part
mol | Vaccinia Venus | VACV mCherry inh
Cc1ccc(S(=O)(=O)N(CC(=O)Nc2cccc([N+](=O)[O-])c2)C2CCCCC2)cc1 | -28% | ·
Oc1oc(-c2ccccc2)nc1C=NCc1ccccc1 | -14% | -14%
Cc1ccc(C(=O)c2cnc3cc4c(cc3c2S(=O)(=O)c2ccccc2)OCCO4)cc1 | ? | ?
FC(F)(F)c1ccc2c(c1)[nH]c(=S)n2C1CC1 | -8% | i
CC(C)(C)n1ncc2c(=O)n(CC(=O)N3CCCCC3)cnc21 | -13% | i
NC(=O)COc1ncnc2scc(-c3ccc(F)cc3)c12 | -4% | -7%
Cc1ccc(C)c(N2CCN(C(=O)c3cc4c(=O)n(Cc5cccs5)ccc4nc3C)CC2)c1 | -17% | -5%
CC(C)(C)OC(=O)N1CCC(CC2CC(c3ccc(Cl)cc3)=NO2)(C(=O)NCC2CCCCC2)CC1 (configuration not stated) | ? | -26%
CCC1(c2ccc(F)cc2)NC(=O)N(CC(=O)Nc2ccc(C(N)=O)cc2)C1=O (configuration not stated) | -5% | -16%
O=C(O)CC1(CC(=O)NCc2ccncc2)CCCCC1 | 2% | -10%

Assay outcomes deposited in PubChem by National Center for Advancing Translational Sciences (NCATS).
